Screens from PubChem BioAssay.
Marburg entry inh: qHTS for inhibitors of binding or entry into cells for Marburg Virus; Potency, µM (doses to about 37.8 µM), for inactives: at the top dose activity change, negative = inhibition, actives largely listed as inhibitors; Marburg virus pseudotyped entry inhibition, cell reporter; control for the full effect not named in the record; about a third of the inactives were read at about 46 µM; AID 540276, 2011; actives 1.8% (n = 300,000); active = well fitted inhibition curve with a large enough effect; inconclusive = small, poorly fitted or top-dose-only effect, or effect the other way; inactive = flat fitted curve, though single readings scatter; tested in HEK293 cells; about a fifth of its hits are not listed in these tables; further: on the % scale 0 is the no-effect control and ±100 the full control effect; luciferase read-out
LASV entry inh: qHTS for Inhibitors of binding or entry into cells for Lassa Virus; Lassa virus pseudotype entry inhibition, cell reporter; control for the full effect not named in the record; Potency, µM (doses to about 37.9 µM), for the others: top-dose activity change, negative = inhibition, hits mostly inhibitors; actives 1.2% (n = 300,000); AID 540256, 2011; active means well fitted inhibition curve with a large enough effect; inconclusive means small, poorly fitted or top-dose-only effect, or effect the other way; inactive means flat fitted curve, though single readings scatter; tested in HEK293 cells; further: on the % scale 0 is the no-effect control and ±100 the full control effect; nearly all actives have a fitted effect of over 50% in size; luciferase read-out
SARS PLP yeast: qHTS of Yeast-based Assay for SARS-CoV PLP. actives 0.19% (n = 330,000). Potency, µM (series often up to 32.9 µM), for inactives: at the highest dose activity, positive = growth rescue. S. cerevisiae expressing SARS-CoV PLpro, growth rescue; control for the full effect not named in the record; active means well fitted rising curve with a large enough effect; inconclusive means small, poorly fitted or top-dose-only effect; inactive means no such curve, though single readings can be large or run the other way; further: 0% is about no effect; nearly all actives have a fitted effect of over 55% in size; growth read by luminescence after 48 h
RE007 growth inh: qHTS Assay for Inhibitors of the HIV-1 protein Vpr; S. pombe RE007 Vpr strain, BacTiter-Glo ATP luminescence, 24 h; control for the full effect not named in the record; Potency, µM (titrated, usually from 92.2 µM), for the others: at the top dose activity change, negative = less growth; actives 0.21% (n = 360,000); AID 651644, 2012; active = well fitted falling curve with a large enough effect; inconclusive = small, poorly fitted or top-dose-only effect; inactive = no such curve, though single readings can be large or run the other way;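 further: on the % scale 0 is the no-effect control and ±100 the full control effect; nearly all actives have a fitted effect of over 50% in size; the assay follows cell death caused by Vpr and the record does not say whether a fall means rescue or toxicity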
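Fission yeast strain RE007, carrying one chromosomally integrated HIV-1 vpr copy, was seeded at OD 0.01 in PMG+AL medium with 23 nL pinned compound. After 24 h at 30 °C and 99% humidity, viability was read by BacTiter-Glo luminescence.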
Cruzain inh Det: qHTS Assay for Promiscuous and Specific Inhibitors of Cruzain (with detergent). Cruzipain (Trypanosoma cruzi), P25779. purified cruzain, Z-FR-AMC fluorescence, 0.01% Triton. Potency, µM, for inactives: max response, negative = inhibition, hits mostly inhibitors. actives 0.43% (n = 200,000). AID 1478, 2009;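 further: plate controls were neutral wells for no effect and buffer without enzyme for full effect; nearly all actives have a fitted effect of over 40% in size; top concentration of the series not given in the record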
Target sequence (P25779 123-467 limits assumed): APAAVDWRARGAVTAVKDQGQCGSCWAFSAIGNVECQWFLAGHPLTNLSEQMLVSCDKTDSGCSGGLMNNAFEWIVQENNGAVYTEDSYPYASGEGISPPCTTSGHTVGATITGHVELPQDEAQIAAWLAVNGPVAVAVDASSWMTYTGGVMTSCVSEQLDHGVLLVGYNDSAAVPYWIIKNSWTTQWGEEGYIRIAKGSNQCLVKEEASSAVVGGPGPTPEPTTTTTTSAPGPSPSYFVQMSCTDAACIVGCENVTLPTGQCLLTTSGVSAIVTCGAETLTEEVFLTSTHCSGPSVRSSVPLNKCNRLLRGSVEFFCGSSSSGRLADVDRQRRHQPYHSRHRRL
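Cysteine protease activity tested under reducing, mildly acidic conditions (100 mM sodium acetate pH 5.5, 5 mM DTT) plus 0.01% Triton X-100. Cruzain 1.5 nM; substrate Z-FR-AMC 2 uM; 15 min compound preincubation at room temperature.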
Cruzain noTriton: qHTS Assay for Promiscuous and Specific Inhibitors of Cruzain (without detergent); Potency, µM, without a hit: max response, negative = inhibition, usual class: inhibitors; purified cruzain, Z-FR-AMC fluorescence, no detergent; Cruzipain (Trypanosoma cruzi), P25779; actives 2.3% (n = 200,000);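 further: plate controls were enzyme without inhibitor for no effect and buffer without enzyme for full effect; nearly all actives have a fitted effect of over 40% in size; top concentration of the series not given in the record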
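Detergent-free condition (0.00005% Triton X-100) in acetate buffer pH 5.5 with DTT. 1.5 nM enzyme and compound were pre-mixed 15 min, then 2 uM Z-FR-AMC substrate added; reaction progress from fluorescence change between first and third reads (60 s).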
StopGo reporter: High Throughput Screening for Foot and Mouth Disease Virus Antivirals | human cells with a luciferase reporter of 2A StopGo recoding; control for the full effect not named in the record | actives 1.2% (n = 410,000) | Potency, µM (highest dose often 57.9 µM), inactives show at the highest dose signal change, negative = less light | AID 1159524, 2015; active = well fitted falling curve with a large enough effect; inconclusive = small, poorly fitted or top-dose-only effect; inactive = no such curve, though single readings can be large or run the other way; tested in HEK293T cells; further: on the % scale 0 is the no-effect control and ±100 the full control effect; nearly all actives have a fitted effect of over 45% in size; luciferase light after 4 h
NS1 function inh: qHTS Assay for Inhibitors of Influenza NS1 Protein Function; S. cerevisiae slowed by influenza A NS1, growth recovery by OD600; Potency, µM (doses to about 46.1 µM), inactives show top-dose activity, positive = more growth; actives 0.4% (n = 270,000); AID 2326, 2010; active means well fitted rising curve with a large enough effect; inconclusive means small, poorly fitted or top-dose-only effect; inactive means no such curve, though single readings can be large or run the other way; further: nearly all actives have a fitted effect of over 50% in size
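A cell-based growth assay was used: compounds that relieve NS1-induced slow growth of budding yeast raise OD600. Assay medium was yeast nitrogen base with ammonium sulphate and -URA supplement, pH 6.0, with 2% galactose.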
* hit, by the source's call; ? = inconclusive; · = no result given; [ ] = dose if it differs, or a comment. Unless noted, the call rests on the fitted dose curve; in most records, active means well fitted curve in the direction sought with a large enough effect; inconclusive means small, poorly fitted or top-dose-only effect, or another doubt; inactive means no such curve, though single readings can be large; an effect the other way counts as inactive or inconclusive. Potency means the concentration at half of the fitted maximal effect. Rows were taken by chance; about 4.7% have a hit in one of these screens.

Second line of a record – Marburg entry inh	LASV entry inh	SARS PLP yeast	RE007 growth inh	Cruzain inh Det	Cruzain noTriton	StopGo reporter	NS1 function inh
> CC1(CC(=O)N/N=C/c2ccc(-c3ccc(C(=O)O)cc3)o2)OCCO1
  -8%	0%	-8%	-1%	-14%	-12%	·	7%
> CCCOc1ccc(/C=C2\SC(N)=NC2=O)cc1OC
  ·	·	-1%	7%	·	·	21%	8%
> N#CC1=C2SCN(C3CCCCC3)CN2C(=O)CC1c1ccc(Cl)cc1 (stereo not given)
  -1%[46.1 µM]	-16%[46.1 µM]	·	·	?	23%	-17%	·
> COc1ccc(NC(=O)c2ccc(NC(=O)C(C)C)cc2)c([N+](=O)[O-])c1
  10%	?	-10%	-8%	-0.9%	-2%	7%	11%
> CN(CCn1ccnc1)Cc1cn(Cc2ccccc2)nc1-c1ccc2c(c1)OCO2
  ·	·	-6%	0%	·	·	4%	0%
> Cc1noc(C)c1C(=O)NCCc1ccc(S(N)(=O)=O)cc1
  11%[46.1 µM]	16%[46.1 µM]	-1%	10%	·	·	-3%	4%
> CC(C)NC(=O)C(c1ccc(F)cc1)N(C(=O)CCC(=O)Nc1ccccn1)C1CCCC1 (stereo not given)
  4%[46.1 µM]	·	3%	1%	·	·	-5%	5%
> CCOCCn1c(-c2ccccc2)nc2ccccc21
  17%[46.1 µM]	9%	1%	-2%	·	·	-26%	1%
> COC(=O)c1sccc1NC(=O)c1ccc(C#N)cc1
  ·	·	0%	-14%	·	·	8%	5%
> O=C(NC1CCSc2ccccc21)c1ccccc1Cl (stereo not given)
  ·	·	4%	-2%	·	·	20%	-9%
> CCCCCCNCc1ccc(Br)cc1
  ?	13%	-5%	-15%	4.0%	-9%	·	-4%
> O=C(CCCCl)NC1=NN(c2ccccc2)C(=O)C1
  ?	8%	3%	0%	-1.3%	-4%	7%	15%
> CCOc1ccc(NC(=O)NCc2cccn2C)cc1
  ?	8%[46.1 µM]	2%	2%	·	·	9%	3%
> O=C(NCCCN1CCCC1=O)Nc1ccc(Cl)cc1Cl
  ·	·	1%	7%	·	·	24%	-4%
> Cc1[nH]c2ccccc2c1C(c1ccccc1)c1ccc(Cl)s1 (stereo not given)
  ?	4%[46.1 µM]	·	·	0.2%	?	?	·
> C=CCn1c(=O)c2ccccc2n2nnc(C(=O)OCC)c12
  11%	20%	2%	-2%	·	·	10%	1%
> CC1CSc2ccccc2NC1=S (stereo not given)
  0%	8%	10µM*	-11%	-5.6%	-11%	46%[activator]	0%
> COc1ccc(Cl)c2sc(N(CCN(C)C)C(=O)CCS(=O)(=O)c3ccc(C)cc3)nc12
  5%[46.1 µM]	0%	2%	-14%	·	·	-29%	·
> Cc1ccc(NC(=O)COC(=O)c2ccc([N+](=O)[O-])s2)c(C)c1
  14%	-1%	-67%	-20%	-0.7%	-6%	-18%	-3%
> O=C1c2ccccc2NC2CCCCCN12 (stereo not given)
  19%	-6%	-10%	30%	0.7%	-4%	4%	-2%
> O=C(O)C1C2C=CC(O2)C1C(=O)Nc1ccc(S(=O)(=O)Nc2ccccc2)cc1 (stereo not given)
  21%	-9%	-4%	-4%	-0.9%	-11%	24%	0%
> O=C(CCC(=O)N1CC2C[C@@H](C1)Cn1c2cccc1=O)NCCc1ccccc1F
  ·	·	3%	-18%	·	·	-19%	7%
> CCN(CC)CCNC(=O)c1ccc(NC(=O)c2cc(S(=O)(=O)N3CCCCC3)ccc2N2CCOCC2)cc1
  ?	5%	·	-2%	·	·	1%	·
> Cc1ccc(S(=O)(=O)NCc2cc(=O)n(C)c(=O)n2C)cc1C
  ·	·	3%	-9%	·	·	4%	25%
> COc1ccc(CN(C)CC(=O)NC(C)c2ccccc2)c(OC)c1 (stereo not given)
  5%	4%	-3%	9%	·	·	-3%	·
> COC(=O)c1cc(C#N)c(Oc2ccccc2)nc1C
  ?	13%	·	-24%	·	·	18%	·
> CCCOc1ccc(N2C(=O)CC(NCCNc3ccc(S(=O)(=O)CC)cc3)C2=O)cc1 (stereo not given)
  23%	-6%	-24%	-9%	-1.8%	?	-17%	-28%
> CCN1CCN(c2ccc(N=Cc3ccc(O)cc3O)cc2)CC1
  ?	-25%	-2%	-5%	·	·	1%	10%
> CCN(CC)CCN1C(=O)C(O)=C(C(=O)c2ccco2)C1c1ccccn1 (stereo not given)
  16%[46.1 µM]	?	-10%	-3%	-8.2%	1%	8%	1%
> COc1cc2c(cc1OC)CN(C(=O)C1(c3ccccc3)CC1)CC2
  -1%	-16%	1%	0%	2.2%	2%	-16%	-5%
> O=C(Nc1ccc(F)cc1)c1ccc(CN2CCc3ccccc3C2)cc1
  ·	·	-2%	9%	·	·	?	1%
> COCCNC(=O)C(c1ccc(C)cc1)N(Cc1ccco1)C(=O)CCC(=O)Nc1ccccn1 (stereo not given)
  ?	-4%	7%	0%	·	·	39%[activator]	-18%
> CCc1ccc2[nH]c3nc(C)cc(C)c3c(=O)c2c1
  9%	?	-16%	1%	-0.8%	-27%	41%[activator]	-15%
> Cc1ccnc(SCCn2c(N3CCN(C)CC3)nc3c2c(=O)n(C)c(=O)n3C)n1
  ·	·	1%	-9%	·	·	-6%	6%
> COCCn1c(C)cc(C(=O)COC(=O)/C=C/c2ccc(OC)cc2OC)c1C
  3%[46.1 µM]	-3%[46.1 µM]	-3%	-9%	·	·	-14%	·
> CCOc1cc(/C=C(/NC(C)=O)C(=O)O)cc(Cl)c1OCc1cccc(Br)c1
  -1%[46.1 µM]	-13%	0%	-3%	·	·	24%	11%
> Cc1cccc(Cl)c1NC(=S)NCCc1ccccn1
  5%[46.1 µM]	-11%	0%	11%	·	·	39%[activator]	1%
> CN1CCN(C(=O)c2ccc3c(c2)N(Cc2ccc(C(F)(F)F)cc2)C(=O)c2ccccc2S3)CC1
  ?	0%[46.1 µM]	·	·	-5.0%	?	-11%	·
> COc1ccc(C(=O)NC(=S)Nc2cccnc2)cc1Cl
  9%[46.1 µM]	30%	-18%	8%	·	·	-6%	-1%
> C/C(N)=C(/C#N)C(=O)COC(=O)Cc1coc2ccc3ccccc3c12
  ?	-7%	0%	4%	·	·	5%	·
> COC(=O)/C(C#N)=C/c1c(Oc2cccc(C)c2C)nc2ccccn2c1=O
  14%	15%	0%	4%	·	·	-6%	4%
> COC(=O)c1cc2sccc2n1Cc1ccc(C)cc1
  -5%	-17%[14.3 µM]	-11%	12%	-1.0%	11%	-1%	-36%
> CC1(C)CC(=O)C(C=NCCN2CCOCC2)=C(O)C1
  ?	12%	-1%	3%	-0.7%	10%	·	7%
> CCOC(CCNC(=O)c1cc(-c2cccs2)nc2ccccc12)OCC
  ·	·	9%	4%	·	·	?	-5%
> COc1cccc(Cc2nc3ccccc3nc2SCC(=O)N2CCN(c3ccccc3)CC2)c1
  ·	3%[46.1 µM]	·	·	0.9%	1%	-18%	·
> CC(=O)c1c(C)[nH]c(C(=O)OCC(=O)Nc2c(C)n(C)n(-c3ccccc3)c2=O)c1C
  -17%[46.1 µM]	3%	1%	14%	·	·	-21%	·
> COc1cc(C(=O)NCCNC(=O)c2cc(OC)c(C)c(OC)c2)cc(OC)c1C
  ?	3%	15%	-12%	·	·	-16%	-3%
> CN(C)c1ccc(P(=O)(OC2CCCCC2)C(O)c2ccncc2)cc1 (stereo not given)
  ?	3%	0%	-12%	·	·	15%	-2%
> CCNC(=O)COC(=O)C1CCN(S(=O)(=O)c2ccc3c(c2)OCCO3)CC1
  4%[46.1 µM]	17%	-2%	5%	·	·	-9%	·
> CC1=CCC(Cc2nc3ccccc3o2)C1(C)C (stereo not given)
  ?	6%	-2%	-2%	4.8%	-12%	11%	3%
> O=C(Nc1ccc(Cl)cc1)N1CCC(CN2CCCCCC2)CC1
  ·	8%[46.1 µM]	·	·	-16%	?	-6%	·
> Cc1cccc(NC(=O)C2CCN(c3nccc(C)n3)CC2)c1
  1%	-3%	-11%	-5%	-1.4%	3%	-7%	-18%
> Cc1ccc(-n2nc(C)c(C3C(C#N)=C(N)OC4=C3C(=O)CC(C)(C)C4)c2Cl)cc1 (stereo not given)
  ·	·	1%	·	1.2%	?	·	-5%
> COCCN1CCC(CO)C1 (stereo not given)
  4%	6%[46.1 µM]	·	10%	·	·	0%	·
> CC(C)OC(=O)CSc1nnc(-c2ccc(Cl)cc2Cl)n1N
  15%	4%	0%	16%	-0.8%	-11%	12%	-1%
> CCOC(=O)N1CCN(CCC(=O)Nc2cc(OC)cc(OC)c2)CC1
  11%	6%	-1%	4%	-1.6%	-11%	27%	-3%
> NC(=O)c1nsc(C(=O)N(c2cccc(F)c2)C(C(=O)NCC2CCCO2)c2cccs2)c1N (stereo not given)
  ?	?	2%	4%	·	·	-16%	·
> COc1ccc(N2CCN(CC(=O)c3ccc(O)c(C)c3O)CC2)cc1
  ·	·	2%	-8%	·	·	?	-6%
> CCCc1cc(=O)oc2cc(OCC(=O)NCC3CCC(C(=O)O)CC3)ccc12 (stereo not given)
  ·	·	10%	0%	·	·	0%	9%
> C=Cc1ccc(Cn2c(=O)n(-c3cccc(C)c3)c(=O)c3c2c2cc(C)ccc2n3C)cc1
  ·	-24%[46.1 µM]	·	·	-18%	25µM*	-13%	·
> CC1CC(C)CN(C(=O)C(C)N2CCN(S(=O)(=O)c3ccccc3F)CC2)C1 (stereo not given)
  4%[46.1 µM]	-12%[46.1 µM]	-2%	24%	·	·	21%	·
> Cn1c2c(c(=O)n(C)c1=O)C(c1cccc(O)c1)CC(=O)N2 (stereo not given)
  2%[46.1 µM]	3%[46.1 µM]	·	·	0.1%	-4%	6%	·
> COc1ccc(OC)c(NC(=O)COC(=O)CN2C(=O)NC3(CCCC3)C2=O)c1
  15%	?	-4%	1%	·	·	?	·
